S aureus helic = S. aureus DNA helicase inhibition | purified S. aureus helicase, fluorescence unwinding assay; about half of the hits fall short of the stated cut | inhibition, %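 (tested at about 80 µM)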 | actives 0.05% (n = 120,000) | AID 485395;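 active means both duplicates at 50% or more, or one of them with a favoured structure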;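 further: 0% = mean of negative control wells and 100% = mean of positive control wells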
MgrA-DNA mod = S. aureus MgrA-DNA binding modulation; fluorescence polarization; inhibition, %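 (about 10 µg/mL by stock and volumes)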; actives 0.13% (n = 84,000);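 active means above 50% in either of two replicates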;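 further: 0% = protein plus DNA without compound and 100% = DNA alone without protein; higher means less MgrA bound to DNA so lower polarization; one replicate is shown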
* hit, by the source's call; . = not tested or not shown. A portion of the library. The share of hits here may be higher or lower than overall.

SMILES | S aureus helic | MgrA-DNA mod
CCCS(=O)(=O)c1c(S(=O)(=O)CCC)c2ccccn2c1C(=O)OC | 8 | 3.0
C=CCN=C1SC(CC(=O)Nc2ccc(OC)cc2OC)C(=O)N1/N=C/c1ccccn1 (stereo not given) | 16 | .
CSc1nc2ccc(NC(=O)c3cccc(F)c3)cc2s1 | . | -1.5
O=C1CCCC2=C1C(c1cccc(Cl)c1)C1C(=O)c3ccccc3C1=N2 (stereo not given) | 8 | 2.0
COc1ccc(C(=O)OCC2CC2)cc1Br | 5 | 0.9
N#Cc1ccc(NC(=O)c2ccccc2C(F)(F)F)cc1 | -7 | -0.9
O=C(CCc1nc(-c2ccccc2)no1)N1CCCCC1 | -10 | -1.2
COc1cccc(-c2noc(N3CCN(c4ccc(F)cc4)CC3)n2)c1OC | 8 | .
COc1ccc(CN(C)C(=O)CSc2nccn2C)cc1OC | -10 | .
Cc1nc2sc3c(c2c(=O)n1-n1cccc1)CCCC3 | 5 | .
O=C(COC(=O)Cn1c(=O)oc2ccccc21)Nc1cccc2nsnc12 | -27 | .
N#Cc1ccc(C(=O)Nc2cc(C(F)(F)F)ccc2-n2cncn2)cc1 | -2 | .
O=C(NCCN1CCN(c2ccccc2)CC1)c1ccc2nc3ccc(Cl)cc3c(=O)n2c1 | 7 | -0.3
N#CCCN(Cc1cccs1)C(=O)c1ccc(Cl)cc1 | . | 0.7
Cc1cc(/C=C2\SC(=S)N(Cc3ccco3)C2=O)c(C)n1-c1ccccc1 | -11 | 0.1
Cc1ccc(-c2csc(-c3cccnc3)n2)cc1 | . | -0.6
O=C(C1CCCN(Cc2ccccc2F)C1)N1CCCCC1 (stereo not given) | 2 | 0.4
CCOC(=O)/C=C1\SCC(=O)N1C | 35 | .
CN(C(=O)Nc1cccc(C(F)(F)F)c1)C1CCCCC1 | -13 | .
CCc1ccc(N2CCN(S(=O)(=O)N(C)C)CC2)cc1 | 2 | -2.1
COC(=O)c1scc(S(=O)(=O)C(C)(C)C)c1-n1cccc1 | . | -1.6
O=C(c1ccco1)N(Cc1ccco1)c1ccc(O)cc1 | 7 | 0.2
Cc1nc2ccccc2c(=O)n1/N=C/c1ccccc1O | -7 | 0.7
O=C(CSc1nc2ccccc2c(=O)n1CCC(=O)N1CCCCC1)c1ccccc1 | -8 | 0.7
c1ccc(-c2nc(NC3CCCCC3)s[n+]2-c2ccccc2)cc1 | -24 | 10

Next section.
SMILES | S aureus helic | MgrA-DNA mod
O=C(Nc1cccnc1)c1cc(-c2ccc(O)cc2)on1 | 15 | .
O=C(N=C1SC2CS(=O)(=O)CC2N1c1ccccc1)c1ccccc1 (stereo not given) | -17 | .
O=C(NCCCN1CCCC1)c1csc2c1CCCCC2 | 2 | 0.9
C=CCn1c(C2CC(=O)N(c3cc(Cl)ccc3OC)C2)nc2ccccc21 (stereo not given) | -1 | .
COC(=O)c1sc(N)c(C(=O)OC)c1CSc1nc(C)cs1 | 0 | .
N#Cc1cc(N)ccc1Sc1cccc(C(F)(F)F)c1 | . | 2.8
COc1cc2nc(CN(C)Cc3sccc3C)[nH]c(=O)c2cc1OC | 4 | .
COC(=O)c1scc(S(=O)(=O)C(C)C)c1Cl | . | 1.1
COc1ccc(CCn2nnc(-c3ccc(NC(C)=O)c(Cl)c3)n2)cc1 | 12 | -0.8
Cc1ccc(N2CC(C(=O)N3CCOCC3)CC2=O)cc1C (stereo not given) | 14 | -0.4
CCc1ccc(OCc2nnc(SCC(N)=O)o2)cc1 | 4 | -2.2
Cc1noc(C)c1S(=O)(=O)NC(C)C | -13 | 1.1
CC1=C(C#N)C(=O)N(C)C(=O)/C1=C/c1ccc(-c2cccc(Cl)c2C)o1 | 27 | .
O=C1NCCN=C1CC(=O)c1ccccc1 | 3 | .
O=C(O)C1(c2cccc(C(F)(F)F)c2)CCCC1 | 7 | .
CCOc1ccc(N2C=Nc3ccc(OCC)cc3C2)cc1 | . | -0.9
O=C(O)CN1C(=O)/C(=C/c2ccc(OC(=O)c3ccccc3I)cc2)SC1=S | . | 13
Cc1nc(/C(N)=N/OC(=O)c2cccc(Cl)c2)c(C(F)(F)F)o1 | -13 | .
COC(=O)CSc1ncnc2ccsc12 | . | -0.9
CN(CCO)c1c[nH]c(=O)[nH]c1=O | -16 | .
N[C@@H](CC(=O)OCc1ccccc1)C(=O)OCc1ccccc1 | . | -3.0
C/C=C/C(=O)Nc1ccccc1Br | . | -1.8
O=C(O)CCNCc1ccccc1 | -16 | -2.0
Cc1nc(C)c(CCNC(=O)C2CCCCC2)s1 | 1 | .
Cc1cccc(C(=O)NN)c1 | 16 | -1.6

The list goes on.
SMILES | S aureus helic | MgrA-DNA mod
CN(C)CCn1nnnc1SCC1=C(C(=O)O)N2C(=O)[C@@H](NC(=O)Cc3csc(N)n3)[C@H]2SC1 | . | 10
O=c1c2cc(-c3ccccc3)sc2[nH]c(=S)n1Cc1ccco1 | -8 | .
CCOC(=O)N1CCN(CC(=O)Nc2ccc(F)c(F)c2F)CC1 | -6 | .
CC1=C(C(=O)OC(C)C)C(c2ccc(C)o2)C2=C(CC(c3cccs3)CC2=O)N1 (stereo not given) | -29 | .
COC(=O)c1ccccc1Sc1c(-c2ccccc2)nc2ccccn12 | . | -1.2
CC(NC(=O)c1cnc2n(c1=O)CCS2)C12CC3CC(CC(C3)C1)C2 (stereo not given) | 4 | .
CC1=C(C(=O)OCC(C)C)Sc2ccc(C(F)(F)F)cc2N1 | -4 | -2.3
Cc1cc2nnc(SCC(=O)NC34CC5CC(CC(C5)C3)C4)n2c2ccccc12 | . | -0.5
O=C(Nc1ccc(SC(F)F)cc1)c1ccc(CO)cc1 | 2 | .
Cc1ccc(-c2nnc(C3CCN(S(=O)(=O)c4ccc(C)cc4C)CC3)o2)cc1 | 17 | .
COC(=O)/C(C#N)=C\c1c[nH]c2ccccc12 | 1 | 0.1
COc1cccc2[nH]c(=O)c(-c3ccccc3)cc12 | . | 0.1
O=C(CSc1nc(-c2ccccc2)nc2c1Cc1ccccc1O2)Nc1ccccc1 | 14 | -0.9
Cc1ncc(CSc2ccccc2N)c(CO)c1O | . | 1.1
CCOC(=O)N1CCN(C(=O)CCn2c(=S)[nH]c3cc4c(cc3c2=O)OCO4)CC1 | 2 | 0.2
COc1ccc2c(c1)CCCN2Cn1nc(-c2ccccc2)n(-c2ccccc2)c1=S | -9 | -0.3
CCCCn1c(=S)[nH]c2cc(S(=O)(=O)N3CCOCC3)ccc21 | 3 | .
CCc1cc2c(cc1C(=O)CC1(O)C(=O)Nc3ccc(Br)cc31)C(C)(C)CCC2(C)C (stereo not given) | . | -3.0
N#C/C(=C\c1ccc2c(c1)OCO2)C(=O)N1CCCC1 | 16 | .
Cc1nc(CSc2n[nH]c(C(C)(C)C)n2)cs1 | . | 0.7
O=S(=O)(c1cc(Cl)ccc1Cl)n1ccnc1 | 4 | -1.4
CN(C)C(=O)CSc1n[nH]c(-c2ccccc2)n1 | -11 | 2.3
CC(C)(C)N1CC(OC(=O)Nc2ccccc2)C1 | -16 | -1.9
COc1ccccc1-c1nnc(SCC2CNC(=O)O2)n1-c1ccccc1 (stereo not given) | 8 | .
O=C1/C(=C/c2ccc(F)cc2)CS/C1=C\c1ccc(F)cc1 | 10 | 0.8

Shown with values under each structure: seven of the compounds above.
Results follow in this order: S aureus helic | MgrA-DNA mod
CCOC(=O)N1CCN(C(=O)CCn2c(=S)[nH]c3cc4c(cc3c2=O)OCO4)CC1
→ 2 | 0.2
COc1ccc2c(c1)CCCN2Cn1nc(-c2ccccc2)n(-c2ccccc2)c1=S
→ -9 | -0.3
CCCCn1c(=S)[nH]c2cc(S(=O)(=O)N3CCOCC3)ccc21
→ 3 | .
CCc1cc2c(cc1C(=O)CC1(O)C(=O)Nc3ccc(Br)cc31)C(C)(C)CCC2(C)C (stereo not given)
→ . | -3.0
N#C/C(=C\c1ccc2c(c1)OCO2)C(=O)N1CCCC1
→ 16 | .
Cc1nc(CSc2n[nH]c(C(C)(C)C)n2)cs1
→ . | 0.7
O=S(=O)(c1cc(Cl)ccc1Cl)n1ccnc1
→ 4 | -1.4

(more compounds)
SMILES | S aureus helic | MgrA-DNA mod
Cc1ccc(S(=O)(=O)N2CC(=NN=C(N)N)C2)cc1 | -1 | .
CCC(C(=O)NC1CCCC(C)C1C)n1nc(C)n2c(cc3sccc32)c1=O (stereo not given) | 4 | 0.9
CC(=O)Oc1ccccc1C(=O)N1CCN(c2ccccc2F)CC1 | -5 | -3.5
CCOC(=O)C1=C(CC)NC2=C(C(=O)CCC2)C1c1ccccc1OCC (stereo not given) | 3 | 6.2
CCC(=O)Nc1ccc(C(=O)OCc2ccccc2)cc1 | 29 | 0.2
Cc1cc(C(=O)CN2C(=O)c3ccccc3S2(=O)=O)c(C)n1C | 8 | .
O=C(Cc1ccc2c(c1)CCCC2)NC1=NCCS1 | 6 | .
COc1ccc(C(=O)NCc2ccc(C#N)cc2)cc1OC | . | -1.4
O=C(O)C1(N2CCCCC2)CCCCC1 | 7 | -6.9
CC(=O)N1c2ccc(S(=O)(=O)N(C)CC(=O)N(C)Cc3ccccc3)cc2CC1C (stereo not given) | 4 | -5.1
Cc1cc(C)n2nc(SCC(=O)Nc3ccc(C(C)C)cc3)nc2n1 | . | 0.3
COc1ccc(-c2cc(-c3nnc(COC(=O)CC4CCCC4)o3)c3ccccc3n2)cc1OC | -5 | .
O=C(OCc1cc(=O)oc2cc(O)ccc12)c1cc(=O)[nH]c2ccccc12 | 0 | .
Cc1nnc(SCC(=O)N(CC(C)C)CC(C)C)[nH]c1=O | -4 | .
CC(Nc1ccc2c(c1)OCCO2)C(=O)N1CCCC1 (stereo not given) | 4 | .
CCCN(C(=O)c1cc2c(s1)-c1c(C)cccc1OC2)c1cccc(Cl)c1 | 11 | 0.2
CNc1cc(=O)n(-c2ccccc2)c(=O)n1-c1ccccc1 | . | -0.6
COc1cccc2sc(N3CCCC3)nc12 | 13 | .
CCCN(C(=O)COc1cc(=O)n(C)c2ccccc12)c1ccccc1C | 16 | 0.9
CC1=C(C(=O)N2CCOCC2)C(c2ccccc2F)C2=C(CC(C)(C)CC2=O)N1 (stereo not given) | 4 | .
Cn1ccnc1S(=O)(=O)/C(C#N)=C/c1ccc2c(c1)OCO2 | . | -1.4
Cc1cc2nn(-c3ccc(Cl)cc3)nc2cc1NC(=O)c1ccco1 | -12 | 0.2
CCn1c(=O)c2ccccc2n(CC(N)=O)c1=O | 2 | 0.5
CC(C)Nc1nc2ccccc2n2cnnc12 | -8 | .
NS(=O)(=O)c1ccc(NC(=O)CSc2ncccn2)cc1 | 8 | .

Additional results follow.
SMILES | S aureus helic | MgrA-DNA mod
Cc1cc(-c2nc(C(=O)O)cs2)no1 | . | -1.9
N#CCSC1=NS(=O)(=O)c2ccccc2N1 | 14 | .
O=C(C(Sc1ccccc1)c1ccccc1)N1CCCc2ccccc21 (stereo not given) | 12 | -1.6
CC(C)N1C(=O)/C(=C/c2ccc(Br)cc2)SC1=S | -3 | .
Cc1ccc2c(c1Br)/C(=N/N1C(=O)c3ccccc3C1=O)C(=O)N2 | 12 | 2.5
O=C(C1CCCN1S(=O)(=O)c1cccc2cccnc12)N1CC=C(c2ccccc2)CC1 (stereo not given) | 11 | -0.6
CSc1nc2sc3c(c2c(=O)[nH]1)CC(C)(C)OC3 | 3 | -1.9
Cc1ccc(-c2oc3ccccc3c(=O)c2O)cc1 | -13 | .
CCCN(CCC)S(=O)(=O)c1ccc(C(=O)N2CC3CCC(CC3)C2)cc1 | . | 0.1
Nc1c(S(=O)Cc2ccc(Cl)cc2)sc2nc3c(cc12)CCCC3 (stereo not given) | 10 | .
Cc1ccc(N=Cc2c(N3CCCC3)nc3c(C)cccn3c2=O)cc1C | -11 | .
FC(F)(F)c1cccc(NC(=S)N2CCCCC2CCN2CCOCC2)c1 (stereo not given) | . | -0.4
O=C(CSc1nnc(-c2ccco2)o1)NCC(=O)c1ccccc1 | 0 | 2.0
Cc1ccc2oc(-c3cc(NC(=O)c4ccc(C(C)(C)C)cc4)ccc3OC(=O)c3ccc(C(C)(C)C)cc3)nc2c1 | . | 0.4
COC(=O)c1cc(S(=O)(=O)C(C)C)c(S(C)=O)s1 (stereo not given) | . | 2.3
O=C(Nc1ccc(N2Cc3ccccc3C2)cc1)c1ncoc1-c1cccs1 | 18 | -2.4
Cc1cc(C(=O)NCCCN2CCN(c3ccccc3F)CC2)n(-c2ccccc2)n1 | 19 | 1.0
COC(=O)C(C)(C)Sc1nnc2c(n1)[nH]c1c(C)cc(C)cc12 | 1 | 0.8
COc1ccc(N2C(=O)CCC2(C(N)=O)c2ccccc2)cc1 (stereo not given) | 9 | -0.7
Cc1cccc(-c2nc(CS(=O)CC(=O)N3CCCCC3)c(C)o2)c1 (stereo not given) | 14 | .
COc1cccc(NC(=O)Cn2ccc3c(OC)cccc3c2=O)c1 | -2 | .
COc1ccc(NC(=O)CN(C)C2CCCc3ccccc32)c(OC)c1 (stereo not given) | 0 | .
CCC(C)(C)NCC(=O)Nc1ccccc1Br | 10 | .
O=C(CSc1ncn[nH]1)NC1CCCc2ccccc21 (stereo not given) | -17 | -2.0
C=CCn1c(C)cc(C(=O)COC(=O)COc2ccccc2C#N)c1C | 13 | .
CC(C)CC(C(=O)O)N1C(=O)C2CC=CCC2C1=O (stereo not given) | 20 | -2.0
Cc1ccc(S(=O)(=O)CCSC(=N)N)cc1 | 18 | -1.2
O=C(O)CC(c1ccccc1Br)N1Cc2ccccc2C1=O (stereo not given) | . | -0.9
N#Cc1ccc(C#Cc2ccccc2)cc1 | . | -0.2
CN(C)c1ccc(C2OCCO2)cc1 | 14 | -0.7

Entries shown so far that have a tert-butyl group (four):
SMILES | S aureus helic | MgrA-DNA mod
COC(=O)c1scc(S(=O)(=O)C(C)(C)C)c1-n1cccc1 | . | -1.6
Cc1nc(CSc2n[nH]c(C(C)(C)C)n2)cs1 | . | 0.7
CC(C)(C)N1CC(OC(=O)Nc2ccccc2)C1 | -16 | -1.9
Cc1ccc2oc(-c3cc(NC(=O)c4ccc(C(C)(C)C)cc4)ccc3OC(=O)c3ccc(C(C)(C)C)cc3)nc2c1 | . | 0.4

Screening results (PubChem BioAssay)
